Assay outcomes (PubChem BioAssay)
TRPV1 potentiator = HTS Assay for Compounds that Act as Potentiators of the Vanilloid Receptor 1 | TRPV1-expressing cells, Fluo-8 calcium influx, capsaicin EC20 potentiation; host cell line not named in the record; control for the full effect not named in the record | potentiation, % at 8.33 µM | hit rate 0.02% among 320,000 | Transient receptor potential cation channel subfamily V member 1 (Homo sapiens), Q8NER1; active means potentiation above 80%; inconclusive means 30% to 80%; inactive means below 30%; also: 0% is about no effect
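Fluo-8 calcium influx in TRPV1-expressing cells, kinetic read (ex 480/em 520 nm). Compound added and read 3 min for agonist activity, followed by capsaicin at EC20 final and 2 min further read for enhancement.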
ClpP mod = qHTS Assay for Activators of ClpP | ATP-dependent Clp protease proteolytic subunit (Bacillus subtilis (strain 168)), P80244 | Potency, µM (series often up to 57.5 µM), for inactives: top-dose activity change, negative = active | AID 651965, 2013 | purified B. subtilis ClpP, FRET peptide cleavage, 20 min | hit rate 1.9% among 340,000; active = well fitted falling curve with a large enough effect; inconclusive = small, poorly fitted or top-dose-only effect; inactive = no such curve, though single readings can be large or run the other way; also: potency is read from the fitted curve at half-maximal effect; the source files actives as falling curves though it sought activators and does not explain the sign; nearly all actives have a fitted effect of over 65% in size; many hits overshoot -100%
Target sequence (P80244 whole entry, looked up): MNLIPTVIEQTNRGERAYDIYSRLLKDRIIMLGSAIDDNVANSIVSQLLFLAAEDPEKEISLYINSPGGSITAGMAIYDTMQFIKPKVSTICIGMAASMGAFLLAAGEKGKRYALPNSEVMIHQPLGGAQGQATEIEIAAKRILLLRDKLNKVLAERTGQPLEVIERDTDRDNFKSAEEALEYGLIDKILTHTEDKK
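Buffer: 100 mM Tris/HCl pH8, 100 mM KCl, 0.05% low protease BSA, 2.5% glycerol, 0.01% Tween-20. ClpP 10 microg/mL final; 20 min RT; delta FRET normalized to ADEP and DMSO controls.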
D2 PAM = Beta-Arrestin HTS for Positive Allosteric Modulators of the Human D2 Dopamine Receptor: Potentiators; D(2) dopamine receptor (Homo sapiens), P14416; DiscoveRx D2 beta-arrestin cells, luminescence, 90 min; 100% = 57 uM dopamine signal; potentiation, % (concentration not given with the values); hit rate 0.23% among 360,000; active = potentiation of 50% or more; inconclusive = 30% to 50%; inactive = 30% or less;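 also: compound concentration not given in the record; tested on top of an EC20 dose of dopamine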
Target sequence (P14416 whole entry, looked up): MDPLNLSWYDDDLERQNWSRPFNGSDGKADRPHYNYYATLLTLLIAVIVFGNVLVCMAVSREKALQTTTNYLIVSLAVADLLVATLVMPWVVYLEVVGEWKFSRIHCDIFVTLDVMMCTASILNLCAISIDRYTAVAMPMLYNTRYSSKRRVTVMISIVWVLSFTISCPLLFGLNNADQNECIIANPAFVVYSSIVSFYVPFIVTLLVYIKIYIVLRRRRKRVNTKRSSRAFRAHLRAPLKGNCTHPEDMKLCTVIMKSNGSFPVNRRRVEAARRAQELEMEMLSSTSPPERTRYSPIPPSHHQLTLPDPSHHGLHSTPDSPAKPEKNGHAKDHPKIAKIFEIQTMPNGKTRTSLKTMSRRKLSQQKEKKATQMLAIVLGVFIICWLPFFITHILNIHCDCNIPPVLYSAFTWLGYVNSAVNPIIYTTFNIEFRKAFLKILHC
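D2 cells co-treated with compound plus 50 nM dopamine (EC20) for 90 min at 37 deg C to detect potentiation. Beta-arrestin recruitment was read as enzyme-fragment luminescence after 1 h at ambient temperature. Full response was set by 57 uM dopamine.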
Menin MLL FP FL = qHTS Assay for Inhibitors Targeting the Menin-MLL Interaction in MLL Related Leukemias: Competition With Fluorescein Labeled MLL-derived Peptide | Fluorescence polarization, fluorescein-MLL peptide displacement from menin | FP activity change, % at 61.4 µM | 290,000 tested, under 10 active | AID 1766, 2009; inconclusive = falling polarisation curve, or a change in total fluorescence; inactive = total fluorescence flat and polarisation flat or rising; no compound was filed as active; the % refers to the polarisation; negative = inhibition;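 also: % of control where 0% means no effect; inhibitors lower the polarisation; unlabelled MLL peptide was the positive control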
gsp antag = qHTS for Antagonists of gsp, the Etiologic Mutation Responsible for Fibrous Dysplasia/McCune-Albright Syndrome: qHTS; AID 624288, 2012; gsp-mutant cells, cAMP HTRF, 30 min; control for the full effect not named in the record; Potency, µM (titrated, usually from 76.9 µM), for inactives: at the highest dose activity change, negative = inhibition, hits mostly inhibitors; hit rate 0.4% among 340,000; active = falling curve of any shape with a large fitted effect; inconclusive = falling curve, mostly with a smaller effect; inactive = flat or rising curve; cell line not stated here;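 also: intracellular cAMP measured with PDE inhibitor Ro 20-1724 present during compound exposure; potency is read from the fitted curve at half-maximal effect; % is scaled to controls: 0 for no effect and ±100 for the full control effect; nearly all actives have a fitted effect of over 65% in size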
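HTRF cAMP read-out (cAMP-d2 plus anti-cAMP antibody-K in lysis buffer, 30 min RT). Before lysis, cells are exposed to compounds with […] for 30 min at 37C in DPBS containing Ca/Mg, BSA and Tween 20.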
gsp ag = qHTS for Agonist of gsp, the Etiologic Mutation Responsible for Fibrous Dysplasia/McCune-Albright Syndrome: qHTS; gsp mutant cells, cAMP HTRF, 30 min; control for the full effect not named in the record; Potency, µM (top dose mostly 76.9 µM), for the others: top-dose activation (cAMP increase), hits mostly activators; hit rate 0.13% among 340,000; active = well fitted activation curve with a large enough effect; inconclusive = small, poorly fitted or top-dose-only effect, or another doubt; inactive = no such curve, though single readings can be large or run the other way; cell line not stated here;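 also: phosphodiesterase inhibitor Ro 20-1724 added with compounds to block cAMP breakdown; potency is read from the fitted curve at half-maximal effect; nearly all actives have a fitted effect of over 60% in size; about a fifth of the inactives were tested at one dose only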
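Cells stably selected in G418 were plated at 2000/well, grown 16-24 hr, then given compounds in DMSO with the PDE inhibitor […] (300 uM solution added) for 30 min at 37C; cAMP was read by HTRF.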
Sfp PPTase inh = qHTS Assay for Inhibitors of Bacillus subtilis Sfp phosphopantetheinyl transferase (PPTase); Biochemical Sfp PPTase activity, qHTS; Potency, µM, inactives show max response, negative = inhibition, actives largely listed as inhibitors; hit rate 3.5% among 310,000; active = well fitted inhibition curve with a large enough effect; inconclusive = small, poorly fitted or top-dose-only effect, or another doubt; inactive = no such curve, though single readings can be large or run the other way;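 also: the enzyme is Sfp with the accession as filed and its product quenches rhodamine fluorescence; potency is read from the fitted curve at half-maximal effect; 0% = enzyme reaction without inhibitor and -100% = no enzyme wells; top concentration of the series not given in the record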
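Fluorescence-quenching assay: 15 nM Sfp-PPTase preincubated 15 min at room temperature with compound, then 5 uM rhodamine-CoA and 12.5 uM BHQ-2-labelled YbbR peptide added. Fluorescence (ex 525/em 598 nm) read at start and after 30 min; difference gives rate.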
Starred values were filed as active, the others as inactive; i = inactive; ? = inconclusive; / = no result given; & = joins results of further samples; ! = not confirmed by another sample; [ ] = remark or other dose.

nr	SMILES	TRPV1 potentiator	ClpP mod	D2 PAM	Menin MLL FP FL
1	C[N+]1(C)CCC(=C(c2ccccc2)c2ccccc2)CC1	-8.6	0.7%	-16.8	0.3[24.8 µM]
2	C1COC(NC(C2CC2)C2CC2)=N1	-4.6	1.5%	-8.8	5.2
3	CC1(C)O[C@H]2CC(=O)OC[C@@]23C1CC(=O)[C@]1(C)C3CC[C@@]2(C)[C@H](c3ccoc3)OC(=O)[C@H]3O[C@]321 (some centres undefined)	-4.8	-0.4%	-15.3	/
4	Oc1ccc2c(c1)OCC1(O)Cc3cc(O)c(O)cc3C21 (centres undefined)	/	0.5%	18.4	?
5	CCCCNc1ccc(C(=O)OCCOCCOCCOCCOCCOCCOCCOCCOCCOC)cc1	-7.5	-2.5%	-10.6	-0.1[24.8 µM]
6	NOCC(=O)O	8.7	0.6%	-1.4	2.9
7	CC(=O)Nc1ccc(CC(=O)O)cc1	9.9	0.6%	2.9	4.8&2.9
8	COc1cc([C@@H]2Oc3cc(C4Oc5cc(O)cc(O)c5C(=O)[C@H]4O)ccc3O[C@H]2CO)ccc1O (some centres undefined)	12.5	2.0%	12.5	/
9	NC(N)=O	/	-0.7%	-3.4	2.0&-5.2
10	CCn1cc(C(=O)O)c(=O)c2cnc(N3CCNCC3)nc21	6.0	/	/	3.4
11	CCCCCC(=O)O[C@]1(C(C)=O)CC[C@H]2[C@@H]3CCC4=CC(=O)CC[C@]4(C)[C@H]3CC[C@@]21C	-4.2	-0.1%	9.9	4.0
12	NC1CCN(c2nc3c(cc2F)c(=O)c(C(=O)O)cn3-c2ccc(F)cc2F)C1 (centres undefined)	/	?	-11.7	3.7

nr	gsp antag	gsp ag	Sfp PPTase inh
1	0.6%	/	19.9%
2	-0.3%	/	12.3%&9.2%&-3.5%&5.2%
3	-2.7%	/	/
4	-2.5%	/	i
5	-3.4%	/	18.7%
6	-2.3%	/	/
7	5.2%	/	14.4%&29.0%
8	?	/	/
9	3.4%	/	6.9%&5.9%
10	/	/	9.6%&25.9%&11.3%
11	?	/	?
12	-3.3%	/	10.4%

Additional records.
nr	SMILES	TRPV1 potentiator	ClpP mod	D2 PAM	Menin MLL FP FL
13	O=C(O)c1cccnc1Nc1cccc(C(F)(F)F)c1	-19.3	0.6%	17.3	0.9
14	COC(=O)C1=CO[C@@H](O[C@@H]2O[C@H](CO)[C@@H](O)[C@H](O)[C@H]2O)C2C1C[C@H](O)[C@@H]2C (some centres undefined)	-1.4	-0.9%	0.8	/
15	CCc1ccc(CCOc2ccc(CC3SC(=O)NC3=O)cc2)nc1 (centres undefined)	/	0.6%	-4.4	1.1
16	Cc1ccc(=O)n(-c2ccccc2)c1	/	?	-2.7	-1.5&15.7
17	COc1ccc(C[C@H]2COC(=O)[C@@H]2Cc2ccc(OC3OC(CO)C(O)C(O)C3O)c(OC)c2)cc1OC (some centres undefined)	2.3	-0.4%	-4.9	1.6
18	C=CC[n+]1ccc(/C=C2\C=Cc3cc(C)ccc3N2CC)c2ccccc21	-7.6	-0.1%	-9.6	-0.2
19	COc1ccccc1N1CCN(CCCN=C2CC(=O)N(C)C(=O)N2C)CC1	/	1.0%	-31.3	/
20	Cc1c(C(=O)O)c(O)cc2c1C(=O)c1c(O)c([C@@H]3O[C@H](CO)[C@@H](O)[C@H](O)[C@H]3O)c(O)c(O)c1C2=O	/	6.9%	-95.5	/
21	CCN(CC)CCOC(=O)c1ccc(N)cc1	3.6	-4.6%	-1.8	4.4
22	COc1ccc(C2CNC(=O)C2)cc1OC1CCCC1 (centres undefined)	5.4&-1.9&-9.0	-2.7%	-1.8	1.7&3.5&-0.7&2.7&-1.3&0.7
23	CCCCNc1ccc(C(=O)OCCN(C)C)cc1	24.4	-3.7%	-4.4	-1.9
24	O=C(O)CCC(=O)c1ccc(-c2ccccc2)cc1	8.1	-3.9%	-13.8	1.9

nr	gsp antag	gsp ag	Sfp PPTase inh
13	-13.9%	/	9.2%&9.7%&17.7%&-1.5%&23.2%
14	5.1%	/	/
15	-20.6%	/	38.2%&8.1%
16	1.8%	/	12.1%&-18.7%
17	3.5%	-5.5%	4.2%
18	-33.8%	-36.6%[inhibitor]	-18.4%
19	-1.6%	/	/
20	?	/	/
21	-0.3%	/	5.9%&10.7%&13.7%
22	0.2%	/	23.1%&2.0%&-3.3%&13.9%&18.8%&-5.1%
23	-0.3%	/	-19.0%&5.3%&12.7%
24	-0.7%	/	2.3%&13.6%&29.4%

Remaining list, next part
nr	SMILES	TRPV1 potentiator	ClpP mod	D2 PAM	Menin MLL FP FL
25	C/C=C/C(=O)N(CC)c1ccccc1C	7.1	-1.4%	-1.8	4.2&-2.8
26	CCOC(=O)[C@H](CCc1ccccc1)N[C@@H](C)C(=O)N1Cc2ccccc2C[C@H]1C(=O)O	/	0.5%	-8.1	/
27	CN1CCCN=C1COC(=O)C(O)(c1ccccc1)C1CCCCC1 (centres undefined)	-17.4	-3.3%	-0.8	-0.4&4.8
28	N#Cc1ccc(C(c2ccc(C#N)cc2)n2cncn2)cc1	-6.9	/	/	-0.5
29	Cc1cncn1CCc1nc2c3ccccc3nc(SCC(=O)Nc3cccc(Cl)c3)n2n1	-10.6	1.4%&-0.5%	-46.2	-0.3
30	N[C@@H](Cc1c[nH]c2ccc(O)cc12)C(=O)O	-2.2	-5.7%&-2.0%	-0.8	3.4&-0.9
31	CCC(NC(C)C)C(O)c1ccc(O)c2[nH]c(=O)ccc12 (centres undefined)	2.7	-4.9%	-5.0	-1.6
32	Cc1cccc2c1NC(=O)C2(c1ccc(O)cc1)c1ccc(O)cc1	3.5	-3.2%	15.8	0.4
33	CC(C)=CCOc1c2ccoc2cc2oc(=O)ccc12	8.4	-1.1%	0.9	-0.1
34	CC1Cc2ccccc2N1NC(=O)c1ccc(Cl)c(S(N)(=O)=O)c1 (centres undefined)	9.5	-1.0%	-14.5	0.2&0.0
35	COc1cc2ncnc(Nc3cccc(Cl)c3)c2cc1OC	-8.2	-20.3%	/	?
36	COc1cc(-c2oc3cc(O)cc(O)c3c(=O)c2O[C@@H]2O[C@H](COC3O[C@@H](C)[C@H](O)[C@@H](O)[C@H]3O)[C@@H](O)[C@H](O)[C@H]2O)ccc1O (some centres undefined)	/	-2.7%	-12.0	/
37	C/C=C(/C)C(=O)OC(C)(C)[C@@H]1Cc2c(ccc3ccc(=O)oc23)O1	-3.3	4.1%	-12.1	2.8
38	CCCc1nc(C(C)(C)O)c(C(=O)O)n1Cc1ccc(-c2ccccc2-c2nn[nH]n2)cc1	3.4	/	/	-0.8

nr	gsp antag	gsp ag	Sfp PPTase inh
25	-2.6%	/	22.6%&26.3%
26	-13.3%	/	/
27	1.2%	/	-14.7%&7.3%
28	/	/	20.4%&25.4%
29	-1.6%	4.6%	?
30	-3.1%	/	-25.9%
31	-2.4%	/	-22.9%
32	6.7%	?	-0.1%
33	5.5%	-15.9%	-6.7%
34	25.4%	/	-5.0%&-0.7%
35	/	/	56.2µM*!
36	-7.7%	/	/
37	-12.3%	?	-7.6%
38	/	/	3.3%

Some of the entries above in a different format:
29: Cc1cncn1CCc1nc2c3ccccc3nc(SCC(=O)Nc3cccc(Cl)c3)n2n1
30: N[C@@H](Cc1c[nH]c2ccc(O)cc12)C(=O)O
31: CCC(NC(C)C)C(O)c1ccc(O)c2[nH]c(=O)ccc12 (centres undefined)
32: Cc1cccc2c1NC(=O)C2(c1ccc(O)cc1)c1ccc(O)cc1
33: CC(C)=CCOc1c2ccoc2cc2oc(=O)ccc12
34: CC1Cc2ccccc2N1NC(=O)c1ccc(Cl)c(S(N)(=O)=O)c1 (centres undefined)
35: COc1cc2ncnc(Nc3cccc(Cl)c3)c2cc1OC
36: COc1cc(-c2oc3cc(O)cc(O)c3c(=O)c2O[C@@H]2O[C@H](COC3O[C@@H](C)[C@H](O)[C@@H](O)[C@H]3O)[C@@H](O)[C@H](O)[C@H]2O)ccc1O (some centres undefined)
37: C/C=C(/C)C(=O)OC(C)(C)[C@@H]1Cc2c(ccc3ccc(=O)oc23)O1
38: CCCc1nc(C(C)(C)O)c(C(=O)O)n1Cc1ccc(-c2ccccc2-c2nn[nH]n2)cc1
assay / compound | 29 | 30 | 31 | 32 | 33 | 34 | 35 | 36 | 37 | 38
TRPV1 potentiator | -10.6 | -2.2 | 2.7 | 3.5 | 8.4 | 9.5 | -8.2 | / | -3.3 | 3.4
ClpP mod | 1.4%&-0.5% | -5.7%&-2.0% | -4.9% | -3.2% | -1.1% | -1.0% | -20.3% | -2.7% | 4.1% | /
D2 PAM | -46.2 | -0.8 | -5.0 | 15.8 | 0.9 | -14.5 | / | -12.0 | -12.1 | /
Menin MLL FP FL | -0.3 | 3.4&-0.9 | -1.6 | 0.4 | -0.1 | 0.2&0.0 | ? | / | 2.8 | -0.8
gsp antag | -1.6% | -3.1% | -2.4% | 6.7% | 5.5% | 25.4% | / | -7.7% | -12.3% | /
gsp ag | 4.6% | / | / | ? | -15.9% | / | / | / | ? | /
Sfp PPTase inh | ? | -25.9% | -22.9% | -0.1% | -6.7% | -5.0%&-0.7% | 56.2µM*! | / | -7.6% | 3.3%

A portion of the library (hit frequency here may not be typical).
